TSHR ag – activates the human thyroid stimulating hormone receptor; P16473; HEK293-CNG-TSHR cells (CNG channel as cAMP sensor), membrane potential dye, cAMP; Potency, µM (highest dose often 57.1 µM), inactives show at the highest dose activation, most hits filed as activators; 73,000 compounds, 0.48% hits; AID 926; active = well fitted activation curve of enough size with the parental cells flat; inconclusive = any curve in the parental cells; inactive = parental cells flat and receptor cells flat or falling; note: potency is the fitted concentration of half-maximal effect; % of control where 0% means no effect; weak receptor curves with flat parental cells got no call and are not listed
Target sequence (P16473 whole entry, looked up): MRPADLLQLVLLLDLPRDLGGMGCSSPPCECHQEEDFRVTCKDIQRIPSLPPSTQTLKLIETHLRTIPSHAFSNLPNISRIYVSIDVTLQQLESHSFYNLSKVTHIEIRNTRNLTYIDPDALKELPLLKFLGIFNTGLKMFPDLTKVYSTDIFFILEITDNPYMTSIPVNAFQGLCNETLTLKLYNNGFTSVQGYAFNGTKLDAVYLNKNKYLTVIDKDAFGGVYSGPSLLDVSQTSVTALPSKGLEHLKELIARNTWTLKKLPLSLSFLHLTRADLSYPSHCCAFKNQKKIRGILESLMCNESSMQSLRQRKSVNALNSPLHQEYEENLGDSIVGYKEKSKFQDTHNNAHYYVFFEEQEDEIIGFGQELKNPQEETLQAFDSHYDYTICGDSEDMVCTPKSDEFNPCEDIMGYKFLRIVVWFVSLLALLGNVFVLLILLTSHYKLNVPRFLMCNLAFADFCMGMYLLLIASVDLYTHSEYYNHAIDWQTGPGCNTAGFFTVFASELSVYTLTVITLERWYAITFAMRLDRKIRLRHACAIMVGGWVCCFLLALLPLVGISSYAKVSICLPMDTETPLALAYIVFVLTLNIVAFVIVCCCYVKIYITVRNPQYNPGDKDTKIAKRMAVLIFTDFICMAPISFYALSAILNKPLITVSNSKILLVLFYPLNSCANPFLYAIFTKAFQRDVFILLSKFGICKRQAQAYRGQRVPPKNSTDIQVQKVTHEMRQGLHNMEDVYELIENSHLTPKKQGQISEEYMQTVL
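HEK 293 cells stably expressing TSHR and a modified CNG channel, with CNG-only parental cells as counterscreen, were preloaded 60 min at room temperature with membrane potential dye containing 100 uM RO 20-1724. Compound exposure was 30 min, and depolarization was read as fluorescence at 590 nm.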
Resorufin autofl – resorufin region autofluorescence. Compound fluorescence, resorufin region 547/598 nm, buffer; active compounds read high. 59,000 compounds, 0.04% hits. max dye-equivalent concentration, M. AID 588; active = above 10 nM dye equivalent; inconclusive = 1 to 10 nM; inactive = 1 nM or less; a few of its hits are not listed in these tables; note: highest value over a series up to 38 µM
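Compounds in 100 mM Tris, pH 8.0, incubated 15 min at room temperature, then fluorescence read at 547 nm excitation/598 nm emission. Signal converted to dye-equivalent concentration via an on-plate six-point resorufin standard curve, per compound concentration.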
A647 fluor – A647 region autofluorescence; Compound fluorescence, A647 channel (570/671 nm), Tris buffer; max dye-equivalent concentration, M; 59,000 tested, under 10 active; AID 592; active means above 1 µM dye equivalent; inconclusive means 0.1 to 1 µM; inactive means 0.1 µM or less;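 note: values scaled relative to a standard on each plate; highest value over a series up to 38 µM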
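Tris 100 mM pH 8.0; cpd + A647 stds pin-transferred; 15 min RT; CCD imager, ex 570/em 671. Output = A647-equivalent conc. per cpd conc.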
AID923 – qHTS Assay for Allosteric/Competitive Inhibitors of Caspase-1: Spectroscopic Profiling in AFC Spectral Region. compound fluorescence, AFC spectral region (405/520 nm); almost no hit is shown here. Potency, µM (highest dose often 57.5 µM), for the others: at the top dose fluorescence increase, actives largely listed as activators. 75,000 compounds, 1.1% hits; active = well fitted activation curve with a large enough effect; inconclusive = small, poorly fitted or top-dose-only effect;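 note: potency is the fitted concentration of half-maximal effect; 0% is about no effect; scaled to a free AFC standard on each plate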
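Baseline compound fluorescence (AFC region, 405 nm ex/520 nm em) taken from the intercept of kinetic reads with 50 nM caspase-1 and 5 uM Ac-WEHD-AFC; normalized to an on-plate AFC standard curve; compounds titrated up to 57 uM.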
A488 fluor – compound fluoresces in the A488 spectral region. compound autofluorescence, A488 spectral region, dye equivalency; active compounds read high. max dye equivalency, M. 59,000 compounds, 0.1% hits; active = above 10 nM dye equivalent; inconclusive = 1 to 10 nM; inactive = 1 nM or less; about half of its hits are not listed in these tables;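 note: highest value over a series up to 38 µM; compound alone in buffer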
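Autofluorescence read at ex 480/em 540 nm after 15 min RT in 100 mM Tris pH 8.0; compound signal normalized to A488 standard series on each plate, reported as dye-equivalent concentration at each test concentration.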
Starred values were filed as active, the others as inactive; i = inactive; ? = inconclusive; . = no result given; & = joins results of further samples; [ ] = dose if it differs, or a comment.

The line under a structure holds: TSHR ag, Resorufin autofl, A647 fluor, AID923, A488 fluor
[1] COc1ccc(NCc2nnc(SCC(=O)Nc3cc(C(F)(F)F)ccc3Cl)o2)cc1
    -16.5%, i, 4.14e-08, 1.7%, i
[2] COc1ccc2[nH]c(=O)c(CN(CCCN(C)C)C(=O)Nc3ccccc3)cc2c1
    6.6%, i, 5.2e-09, 2.6%, i
[3] CCOC(=O)Cn1c(C(C)=O)nc2ccccc21
    4.3%, ., ., 3.0%, .
[4] Cc1noc(C)c1CSc1nc2ccccc2n1CCc1ccccc1
    ?, i, 6.4e-09, 0.6%, i
[5] Cc1c(Cl)cccc1NC(=O)CCN1CCCCC1
    -2.9%, ., ., -0.5%, .
[6] O=C(c1c[nH]c2ccc(S(=O)(=O)N3CCOCC3)cc2c1=O)N1CCCC1
    -0.1%, i, 1e-09, -0.3%, i
[7] CCCN1Cc2cccc(C(=O)Nc3ccc4c(c3)OCO4)c2C1=O
    ?, i, 1.63e-08, 0.4%, i
[8] CCSc1nnc(C)c2ccccc12
    2.6%, ., ., -1.7%, .
[9] CCOC(=O)c1cnc2c(C)c(Cl)ccc2c1N1CCOCC1
    -2.8%, ., ., -1.4%, .
[10] Cc1cc(S(=O)(=O)NCCCN2CCOCC2)ccc1F
    0.9%, i, 1.62e-08, -0.6%, i
[11] COc1ccc(C2=NOC(C(=O)NCC(C)C)C2)cc1 (stereo not given)
    14.7%, i, 5e-09, -1.1%, i
[12] O=C(C1CCN(S(=O)(=O)c2cccnc2)CC1)N1CCN(C2CCCC2)CC1
    -1.1%, i, 1.6e-08, 0.5%, i
[13] COc1cccc(-c2cc(C(=O)Nc3cccc(O)c3)no2)c1
    17.0%, i, 4.9e-09, -0.1%, i
[14] COc1cccc(-n2c(SCC(=O)O)nnc2-c2cccnc2)c1
    -4.1%, i, 9.3e-09, -1.3%, i
[15] COC(=O)c1cn(C(=O)c2ccccc2F)nc1N
    2.1%, i, 8.6e-09, 0.6%, i
[16] CCCCNc1nc(C)nc2c1nc(C)n2CCC
    2.3%, ., ., 1.9%, .
[17] CC(C)COc1ccc(-c2nnn(CC(=O)N3CCCC3)n2)cc1
    1.4%, i, 1e-09, -0.2%, i
[18] CCCn1c(C)nc2c(NCCOC)nc(C)nc21
    0.8%, ., ., 1.4%, .
[19] Clc1ccccc1-c1nc(NC2CCNCC2)c2ccccc2n1
    1.6%, i, 6.2e-09, 5.9%, i
[20] O=C(NCN1CCCCC1)c1cccnc1
    -3.5%, i, 1.64e-08, -1.5%, i
[21] O=C(CN1C(=O)C2CC=CCC2C1=O)NC1=NCCS1 (stereo not given)
    3.3%, i, 3.04e-08, 0.2%, i
[22] Cc1ccc(-n2ncc3c(=O)n(CC(=O)NC4CCCC4)cnc32)cc1C
    3.2%, i, 3.1e-09, -0.1%, i
[23] CC(C)CNC(=O)c1ccccc1NC(=O)CN(c1ccc2c(c1)OCCO2)S(C)(=O)=O
    15.6%, i, 1e-09, -0.1%, i
[24] COc1ccccc1NC(=O)CCc1nc(-c2cccs2)no1
    6.8%, i, 1e-09, -2.2%, i
[25] CN(C)c1ccc(CN(C(=O)COc2ccc(Br)cc2)C2CCS(=O)(=O)C2)cc1 (stereo not given)
    -2.9%, i, 1e-09, -0.1%, i
[26] CC1CC(C)CN(CCCNC(=O)Cn2ncc3c(=O)oc4ccccc4c32)C1 (stereo not given)
    6.1%, ., ., 1.9%, .
[27] c1ccc(-c2cccc(N3CC4(CCNCC4)C3)c2)cc1
    6.9%, i, 8.8e-09, 2.7%, i
[28] Cc1cccc(OCc2nnc(SCc3nc4cc(C(F)(F)F)ccc4c(=O)[nH]3)o2)c1
    5.2%, i, 1.89e-08, -0.3%, i
[29] Cn1cnc2nc3n(c2c1=O)CCC3
    2.1%, ., ., 3.0%, .
[30] COc1ccc(NC(=O)CSc2nc3ccccc3c(=O)n2CCNC(C)=O)c(OC)c1
    28.6%, i, 1.11e-08, -0.6%, i

Brought forward from above: 2 compounds; new compounds follow.
The line under a structure holds: TSHR ag, Resorufin autofl, A647 fluor, AID923, A488 fluor
[29] Cn1cnc2nc3n(c2c1=O)CCC3
    2.1%, ., ., 3.0%, .
[30] COc1ccc(NC(=O)CSc2nc3ccccc3c(=O)n2CCNC(C)=O)c(OC)c1
    28.6%, i, 1.11e-08, -0.6%, i
[31] Cc1ccc(-n2c(SCC(=O)NCc3ccco3)nnc2-c2cccnc2)c(C)c1
    -0.8%, i, 3.63e-08, 0.9%, i
[32] Cn1c(=O)n(C)c2cc(/C=N/n3cnnc3)ccc21
    -1.4%, i, 2e-09, 1.0%, i
[33] CC(c1ccccc1)C1C(C#N)=C(N)OC2=C1C(=O)CC(C)(C)C2 (stereo not given)
    ?, ., ., -2.2%, .
[34] COc1ccc(OC)c(NC(=O)CSc2nc3cccnc3n2C)c1
    ?, i, 4.67e-08, 0.3%, i
[35] CN=C(NC#N)NCCSC[C@H]1N=CN=C1C
    ?, i, 1e-09, -2.5%[25.7 µM], i
[36] CCCCC(=O)Nc1cccc(-c2cn3ccsc3n2)c1
    -2.4%, i, 2.7e-09, -1.1%, i
[37] CO[C@@H](C(C)C)[C@@H](C)[C@@H]1OC(=O)C[C@@H]1O
    -2.2%[11.4 µM], ., ., 4.5%[11.5 µM], .
[38] Cc1cccc(N2CCN(C(=O)CS(=O)(=O)Cc3nc(-c4ccccc4F)oc3C)CC2C)c1 (stereo not given)
    ?, ., ., -2.5%, .
[39] CC(C)CO/N=C1/C[C@@H](O)[C@@H](O)[C@@H]2[C@@H]3C(=O)N(Cc4ccccc4)C(=O)[C@H]3CC[C@H]12
    ?, ., ., -1.1%[11.5 µM], .
[40] CN(C)CCNS(=O)(=O)N(C)C
    0.9%[11.4 µM], i, 4.56e-08, 0.4%[11.5 µM], i
[41] Cc1nc(CC(=O)N2CCN(S(=O)(=O)c3ccccc3C#N)CC2)cs1
    1.6%, i, 1e-09, -0.1%, i
[42] Cc1ccc(S(=O)(=O)N2CCC(C(=O)N[C@H](C(=O)NCc3ccco3)C(C)C)CC2)cc1
    -1.0%, i, 7e-09, -1.6%, i
[43] O=C(CN1C(=O)c2ccccc2C1=O)NCC1COc2ccccc2O1 (stereo not given)
    ., i, 2.3e-09, -2.7%, i
[44] COc1ccc(NS(=O)(=O)c2ccc(OCC(=O)N3CCCC3)cc2)cc1
    3.2%, i, 3.95e-08, -1.6%, i
[45] Cc1ccccc1NC1C=CS(=O)(=O)C1 (stereo not given)
    -0.7%, i, 2.52e-08, -0.9%, i
[46] CSc1nnc(Cn2c(=O)sc3ccccc32)n1C
    ?, ., ., -1.2%, .
[47] CC(NC(=O)NCc1cccnc1)(C(F)(F)F)C(F)(F)F
    ., i, 2.23e-08, ., i
[48] O=c1[nH]c(N2CCN(c3ccccc3)CC2)nc2c1CCC2
    7.2%, i, 4.59e-08, -2.2%, i
[49] COc1ccc(OC)c(S(=O)(=O)Nc2cnc3ccccc3c2)c1
    6.1%, i, 1e-09, -0.6%, i
[50] CCC(C)(C)n1nnnc1C(c1ccccc1OC)N1CCSCC1 (stereo not given)
    ?, i, 1e-09, -2.1%, i
[51] COC(=O)c1cc(Br)c(=O)n(CC(C)C)c1
    8.0%, i, 1e-09, 1.2%, i
[52] O=C(c1cc(C(F)(F)F)cc(C(F)(F)F)c1)N1CCC[C@@]2(CCN(c3ccccc3)C2)C1
    -6.9%, i, 2.43e-08, 1.3%, i
[53] COc1ccc(-c2cc3nc(C)c(CCC(=O)NCc4ccco4)c(C)n3n2)c(OC)c1
    -4.0%, i, 2.41e-08, 1.4%, i
[54] CCOC(=O)c1c(NC(=O)CSc2nnnn2-c2ccc3c(c2)OCO3)sc(C)c1C
    ?, i, 1.62e-08, 0.4%, i
[55] Cc1ccc(S(=O)(=O)Nc2nc3ccc(S(C)(=O)=O)cc3s2)cc1
    -1.2%, i, 2.21e-08, 2.3%, i
[56] C/C=C/CSc1nc2c(c(=O)[nH]c(=O)n2C)n1Cc1ccc(C)cc1
    17.5%, ., ., 3.2%, .
[57] Cc1nc(NCCCN2CCOCC2)c2oc3ccccc3c2n1
    3.4%, i, 3.07e-08, 3.9%, i
[58] COc1ccc(N2CSC3=C(C#N)C(c4cc(OC)ccc4OC)CC(=O)N3C2)c(OC)c1 (stereo not given)
    -7.9%, ., ., 6.7%, .
[59] CCOCCCNC(=O)c1c[nH]c2ccc(S(=O)(=O)Nc3cccc(OC)c3)cc2c1=O
    -3.5%, i, 1.67e-08, 1.0%, i
[60] O=C(CCN1CCCCC1)c1csc2ccccc12
    3.9%[11.4 µM], i, 1e-09, -2.7%[11.5 µM], i

Remaining list, next part:
The line under a structure holds: TSHR ag, Resorufin autofl, A647 fluor, AID923, A488 fluor
[61] Cc1ccc(NC(=O)CCNS(=O)(=O)c2ccc3c(c2)oc(=O)n3C)c(C)c1
    -2.5%, i, 2.57e-08, -1.7%, i
[62] CCC(CC)C(=O)NCCc1ccc(OC)c(OC)c1
    -2.3%, ., ., 4.6%, .
[63] Cc1onc(-c2ccccc2Cl)c1-c1nc(-c2ccccn2)no1
    ?, i, 3.2e-09, -2.7%, i
[64] O=C(OCCN1CCCCC1)c1c[nH]c2ccccc12
    8.1%, i, 3.1e-09, 2.3%&-1.3%, i
[65] CCCc1[nH]nc2c1C(C1CC=CCC1)C(C#N)=C(N)O2 (stereo not given)
    -5.1%, ., ., 0.3%, .
[66] Cc1nc2sc(C(c3ccco3)N3CCN(c4ccc(F)cc4)CC3)c(O)n2n1 (stereo not given)
    ?, ., ., -1.2%, .
[67] Cc1ccccc1-n1c(C)nnc1SCc1nc2ccccc2s1
    ?, i, 1.49e-08, 1.3%, i
[68] Cn1c(CCNC(=O)c2ccccc2)nc2ccccc21
    -0.3%, i, 2.4e-09, 1.0%, i
[69] CC1=NNC(=S)NCCCN2CCN(CCCNC(=S)NN=C(C)C=NNC(=S)NCCCN3CCN(CCCNC(=S)NN=C1)CC3)CC2
    -3.2%[11.4 µM], i, 1e-09, -0.6%[11.5 µM], i
[70] CCCN1C(=O)c2cc(C(=O)O)ccc2C1O (stereo not given)
    3.3%, ., ., 0.1%, .
[71] O=S(=O)(c1ccccc1)c1nc(-c2ccco2)oc1NCc1ccco1
    17.8%, i, 1e-09, 0.5%, i
[72] CCOC(=O)N1CCN(C(=O)C2CCC(CNS(=O)(=O)c3ccc(Cl)cc3)CC2)CC1 (stereo not given)
    ., i, 1e-09, -1.7%, i
[73] c1ccc(-c2noc(-c3ccc4ccccc4c3)n2)nc1
    ., i, 3.84e-08, 0.0%, i
[74] COCCn1c(C)cc2c(c1=O)C(c1ccccc1F)C(C#N)=C(N)O2 (stereo not given)
    -14.3%, i, 2.8e-09, 9.1%, i
[75] COC(=O)c1ccc(NC(=O)Cn2nnc3ccccc32)cc1
    5.6%, i, 1e-09, 0.2%, i
[76] Cc1cccc(CNc2ncncc2-c2ccccc2C)c1
    ?, i, 1e-09, 0.4%, i
[77] CC(C)(C)C(=O)/C=c1\[nH]c(=O)/c(=C\c2ccc(C#N)cc2)s1
    ?, i, 1e-09, 7.9%, i
[78] CCc1cc2ccc(OC)cc2nc1SCC(=O)Nc1cc(C)on1
    ?, i, 1.31e-08, 0.7%, i
[79] Cc1ccc2c3c(c(SCC(=O)Nc4nonc4C)nc2c1)CCCC3
    ?, i, 1.13e-08, -0.8%, i
[80] Cn1c(=O)cc(SCC(=O)Nc2ccccn2)c2ccccc21
    -3.9%, i, 1.93e-08, 0.0%, i
[81] CCc1nnc(NC(=O)c2ccc(S(=O)(=O)N(CC)Cc3ccccc3)cc2)o1
    0.6%, i, 1e-09, -1.3%, i
[82] O=C(CCn1nnc2ccccc21)N1CCN(c2ccccc2)CC1
    -2.1%, i, 1e-09, 1.9%, i

An excerpt; the hit share may differ from the screen's.
